Rce1 inh = inhibitors of yeast Ras-converting enzyme. yeast membranes, quenched prenylated peptide cleavage fluorescence. Q03530. actives 0.27% (n = 290,000). calls only;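 active = fall in fluorescence gain of 50% or more versus controls, with final raw signal at or below 3038400; inconclusive = same 50% fall but final raw signal above 3038400; inactive = fall in fluorescence gain under 50%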;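 note: plate controls were neutral control wells for no effect and wells lacking membranes for full effect; tested at 10 µM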
Target sequence (Q03530 whole entry, looked up): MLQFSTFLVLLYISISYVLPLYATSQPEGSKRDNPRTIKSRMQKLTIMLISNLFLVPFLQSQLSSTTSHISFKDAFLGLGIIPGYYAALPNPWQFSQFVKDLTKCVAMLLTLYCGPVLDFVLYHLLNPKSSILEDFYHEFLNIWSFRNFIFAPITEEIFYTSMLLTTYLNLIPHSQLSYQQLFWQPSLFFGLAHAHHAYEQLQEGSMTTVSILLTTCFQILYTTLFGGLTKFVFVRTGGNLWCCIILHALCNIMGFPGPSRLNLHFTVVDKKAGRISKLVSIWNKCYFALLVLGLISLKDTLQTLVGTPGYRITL
CSC inhib = cancer stem cell inhibition; cancer stem cell-like cells viability, luminescence; inhibition, % at 7.5 µM; actives 1.1% (n = 300,000); AID 2717;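 active = mean at 75% or more and at least half the replicates too; inconclusive = mean and replicates disagree; tested in HMLE shEcad cells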;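 note: 0% = median of negative and 100% = median of positive control wells; the first replicate is given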
PABP FP inh = PABP-poly(A) binding inhibition; PABP-poly(A) RNA binding, fluorescence polarization; inhibition, % at 35 µM; P11940; actives 1% (n = 290,000);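 active = 50% or more with normal probe brightness, or confirmed in later tests; inconclusive = above 50% with abnormal brightness, or retests that disagree; inactive = below 50% or failed in later tests; about a fifth of its hits are not listed in these tables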;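 note: calls also rest on retests at 20 µM and on dose response follow-up; controls were probe without protein and protein plus probe with vehicle; some compounds called inactive have numbers as strong as hits; many hits fall short of the cut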
Target sequence (P11940 whole entry, looked up): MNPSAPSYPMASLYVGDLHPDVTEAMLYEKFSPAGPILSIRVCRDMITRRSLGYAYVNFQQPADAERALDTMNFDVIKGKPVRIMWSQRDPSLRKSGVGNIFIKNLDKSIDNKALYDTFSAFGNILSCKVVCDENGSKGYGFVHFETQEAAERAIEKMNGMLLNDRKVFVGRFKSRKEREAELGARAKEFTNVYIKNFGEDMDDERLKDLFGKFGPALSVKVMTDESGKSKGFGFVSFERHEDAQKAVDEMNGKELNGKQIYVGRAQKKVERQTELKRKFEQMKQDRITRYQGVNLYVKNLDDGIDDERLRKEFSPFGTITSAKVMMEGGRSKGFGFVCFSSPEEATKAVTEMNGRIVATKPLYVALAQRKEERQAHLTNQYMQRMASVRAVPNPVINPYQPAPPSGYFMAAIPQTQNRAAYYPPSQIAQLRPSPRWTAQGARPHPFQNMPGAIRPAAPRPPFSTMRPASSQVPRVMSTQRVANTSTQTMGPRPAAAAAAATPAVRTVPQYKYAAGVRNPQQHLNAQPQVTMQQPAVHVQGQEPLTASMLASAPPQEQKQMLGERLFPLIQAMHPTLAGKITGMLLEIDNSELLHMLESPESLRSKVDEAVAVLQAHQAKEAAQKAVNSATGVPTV
Env fusion inh = inhibitors of HIV Env-mediated cell fusion. HeLa-JRFL Env/CEM21 cell fusion, luciferase. inhibition, % at 12.3 µM. actives 1.1% (n = 360,000). AID 651610;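 active = mean replicate inhibition score of at least 50 and every replicate individually at or above 50; inconclusive = only one of the two criteria met; inactive = mean below 50 and not all replicates reaching 50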;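 note: 0% = plate neutral controls and 100% = maraviroc near 300 nM; one replicate is shown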
Yeast UUG start = alters start codon recognition fidelity in yeast; actives 0.13% (n = 350,000); AID 602363; activity score, % at 18.7 µM; S. cerevisiae UUG-firefly luciferase reporter, luminescence/redox ratio;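 active = replicate mean at a twofold rise or more, about +100% in these data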;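 note: firefly luciferase made from a UUG start codon reports start codon fidelity; reporter light over untreated wells divided by growth signal over untreated wells; some hits fall short of that in this replicate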
MT1-MMP act inh = blocks activation of human MT1-MMP; P50281; AID 651647; HT1080 RFP-PRO-GFP cells, GFP/RFP ratio fluorescence, overnight; percent of plate control window, DMSO zero; actives 0.061% (n = 360,000); GFP/RFP ratio change, % at 20 µM;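 active = GFP/RFP ratio change of at least 30% with cell ATP level not reduced by more than half and red fluorescence within 50% of control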; note: strong numbers were not always called active
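Material – HT1080 RFP-PRO-GFP cells · Control set – DMSO wells and RFP-L50D-GFP cells · Incubation – overnight cell settling, then overnight compound exposure, 37 °C, 5% CO2 · Compound dosing – single-point 20 µM compound, 1% DMSO · Read-out – GFP/RFP fluorescence ratio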
eIF4H FP inh = inhibitors of RNA binding by human eIF4H. Q15056. eIF4H fluorescence polarization binding assay. inhibition, % at 35 µM. actives 0.94% (n = 290,000). AID 2012;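 active = 50% or more with normal probe brightness, or confirmed in later tests; inconclusive = above 50% with abnormal brightness, or retests that disagree; inactive = below 50% or failed in later tests; about a fifth of its hits are not listed in these tables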;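 note: calls also rest on retests at 20 µM and on dose response follow-up; 0% = protein and probe with vehicle and 100% = probe without protein; strong numbers were not always called active; many hits fall short of the cut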
MT1-MMP act inh RFP = second read-out of MT1-MMP act inh, no call of its own (marks repeat the call); RFP signal change, %; measured here: RFP expression control read;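 0 = vehicle wells; hits needed this value within 50% of zero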
* = called active by the depositor; i = inactive; ? = inconclusive; nt = not tested or not shown; + = active, no number; & = joins results of further samples; [ ] = dose if it differs, or a comment. A portion of the library; count on the stated rates, not on these rows.

SMILES	Rce1 inh	CSC inhib	PABP FP inh	Env fusion inh	Yeast UUG start	MT1-MMP act inh	MT1-MMP act inh RFP	eIF4H FP inh
Cc1nn(-c2cccc(Cl)c2)c2nc(C(F)(F)F)[nH]c(=O)c12	i	30	-1	-1	nt	-2	-8	9
S=c1[nH]nc(CN2CCCCC2)n1Cc1ccccc1	i	15	-5	-4	nt	2	-3	4
CCC(C)NC(=O)C(Cc1ccccc1)NS(=O)(=O)c1ccc2c(c1)oc(=O)n2C (centres undefined)	i	-18	11	-7	-21	-2	-3	-9
C=CCNS(=O)(=O)c1ccc2nsnc2c1	i	-6	-8	-18	-20	-1	1	-4
CCOP(=O)(OCC)/C(=C/N1CCCCC1)NC(=O)c1ccccc1	i	-8	-3	-8	3	0	5	-8
COc1ccc(-c2cc(C(=O)NCCCN3CCOCC3)c3cc(C(C)C)ccc3n2)cc1	i	-3	nt	16	-8	-1	0	nt
C[C@@H](C(=O)Nc1ccc(SC(F)F)cc1)N1C(=O)C2CCCCC2C1=O (some centres undefined)	nt	-17	nt	-29	4	-2	2	nt
CC(C)(C)c1ccc(C(=O)N2CCC2(C)C(=O)NCc2cccc3ccccc23)cc1 (centres undefined)	nt	nt	nt	-4	-12	-3	-15	nt
COc1ccc(CC(=O)Nc2ccc(C(=O)NC(C)(C)C)cc2)cc1OC	i	-6	-4	10	0	3	-2	-11
COc1cccc(N2CCN(C(=O)c3ccc(Cl)c(NC4=NC5CS(=O)(=O)CC5S4)c3)CC2)c1 (centres undefined)	i	-6	nt	11	-10	0	2	nt
CCCC/C(C)=N/NC(=O)c1cn(-c2ccccc2)nc1-c1ccccc1	i	-13	1	4	-8	0	1	-5
CCN1C(=O)[C@H]2[C@@H](c3ccc(-c4ccc(OC)cc4)c(OC)c3)N3CCCC[C@@]3(C(=O)OC)[C@H]2C1=O	i	20	nt	26	67	-4	-6	nt
CCOC(=O)C1(Cc2ccccc2C(F)(F)F)CCN(CC(O)CO)CC1 (centres undefined)	i	1	-3	-12	9	5	1	-4
CCC1CCCCN1Cc1nc2ccccc2c(=O)n1CC(C)=O (centres undefined)	i	5	3	4	-7	-4	-4	-5
Cc1ccc(-c2nnn(CC(=O)NC3CCN(Cc4ccccc4)CC3)n2)cc1	i	-4	6	3	nt	3	-1	4
Cc1ccc(S(=O)(=O)N2CCN(C(=O)c3cccs3)CC2)c(C)c1	i	-14	19	26	nt	-2	-3	0
COc1ccccc1NC(=O)COC(=O)/C=C/c1ccccc1[N+](=O)[O-]	i	-16	-7	nt	25	11	7	-7
CCCCOC(=O)CSC(=S)N(C)Cc1cccs1	i	-7	18	16	nt	-3	-3	-4
COc1cccc(C(C(=O)NC2CCCCC2)N(C(=O)CNC(=O)c2ccco2)c2cccnc2)c1 (centres undefined)	i	-6	11	-9	-13	2	5	-4
CN(CCCNC(=O)C1CCC(=O)N1Cc1ccccc1Cl)c1ccccc1 (centres undefined)	i	-13	-9	10	-18	3	3	0
C/C(=N\NC(=O)c1ccc2c(c1)OCO2)c1ccc(NS(C)(=O)=O)cc1	i	-1	nt	-2	-20	0	2	nt
COc1cc(NC(=O)CCCl)cc(-n2cnnn2)c1	i	-6	8	-6	nt	-1	2	-4
Cc1c(O)ccc(/C(Cc2ccc3ccccc3n2)=N\O)c1O	i	12	5	-94	-16	-13	-10	2
CN(Cc1ccccc1)C(=O)c1ccccc1NC(=O)C1=CSCCO1	i	-7	5	14	0	-2	-3	-5
COc1ccc(Cc2nc3ccc(C(=O)N(C)CCc4cnn(C)c4)cc3o2)cc1OC	i	nt	-5	19	-13	2	-24	3
CCC(C)[C@H]1COCCS(=O)(=O)N1Cc1ccccc1 (some centres undefined)	i	7	8	-19	-12	5	3	-6
O=C(CSc1nc(Cc2ccccc2)nc2ccccc12)Nc1ccc2c(c1)OCCO2	i	nt	-1	nt	-16	-8	-5	5
NC(=O)c1c(NC(=O)Cc2ccccc2)sc2c1CCN(Cc1ccccc1)C2	i	?	5	15	0	1	-10	0
O=C(CC1Nc2ccccc2NC1=O)Nc1ccc2c(c1)OCO2 (centres undefined)	i	-8	-4	-29	nt	1	2	40
Cc1cc(NC(=O)CN2C(=O)NC(C)(c3ccc(Cl)cc3)C2=O)no1 (centres undefined)	i	-11	8	-4	nt	8	6	0
CC(C)Oc1ccc(/C=N/NC(=O)C(CSCc2ccccc2)NC(=O)c2ccc([N+](=O)[O-])cc2)cc1 (centres undefined)	i	14	-10	nt	-4	0	-3	0
CCn1nnc(NC(=O)c2ccc(-c3ccc(Cl)cc3)o2)n1	i	12	-2	6	-1	2	1	-11
CCOC(=O)c1sc(=S)n(C)c1NC(=O)c1ccc(C(C)(C)C)cc1	i	37	5	22	-24	-9	-14	-13
CCOc1ccc(S(=O)(=O)N2CCN=C2c2ccccc2)c(C)c1C	i	3	-2	-32	0	1	-1	-15
COc1ccc(/C(O)=C2/C(=O)C(=O)N(Cc3ccco3)C2c2cccs2)cc1 (centres undefined)	i	nt	0	-65	-16	6	2	10
O=S(=O)(c1ccccc1)N1CCN(C(=S)NCCc2ccccc2)CC1	i	-3	-8	26	-32	0	1	-5
COc1ccc(-c2cc3c(=O)n(CC(=O)NCCCN4CCC(N5CCCCC5)CC4)nc(C)n3n2)cc1	i	-16	16	13	-17	7	2	6
O=c1cc(NCc2ccccc2)c2ccccc2o1	i	-8	-16	-16	0	4	-3	-8
CC(C)(C)c1cc(-c2nc(N)nc(N)n2)cc(C(C)(C)C)c1	i	nt	-10	9	nt	2	1	4
O=C(CNS(=O)(=O)c1ccc(Br)s1)N1CCC(N2CCCCC2)CC1	i	-12	0	nt	-9	2	10	-11
Cc1oc(-c2ccccc2F)nc1CS(=O)(=O)CC(=O)NCCCN1CCc2ccccc2C1	i	-28	-22	-5	2	-1	5	-2
O=C(OCCN=C1NS(=O)(=O)c2ccccc21)C1CC(=O)N(c2ccc(Cl)cc2)C1 (centres undefined)	i	-6	4	nt	-7	3	3	6
COc1ccccc1-c1cc(C(F)(F)F)nc(N2CCCCC2)n1	i	28	-2	-7	-26	0	3	-10
O=C1c2ccccc2C(=O)N1CCc1nc2ccccc2c(=O)n1CCCn1ccnc1	i	-23	-1	nt	-22	0	3	1
CN(C)CCCN(C(=O)c1ccc(S(=O)(=O)N2CCCCCC2)cc1)c1nc2c(F)cc(F)cc2s1	i	-22	nt	-4	-6	1	2	nt
Cc1nc2ccc(NC(=O)C(F)(F)F)cc2o1	i	-7	-5	12	-9	-1	4	3
COc1ccc(/C=C/C(=O)c2ccc(O)cc2)cc1COc1ccc(F)cc1	i	97*	-6	nt	-8	-1	-11	-2
CC(=O)Nc1ccc(Cl)c(-c2nc3ncccc3o2)c1	i	-18	4	-4	-17	1	2	1
CCCNC(=O)c1ccc(N2CCC3(CC2)CC(c2cccc(Br)c2)=NO3)c(NC(=O)c2cccc(C)c2)c1	i	-1	nt	20	-2	1	0	nt
O=C(Nc1ccc2c(c1)OCO2)c1cc(Cl)ccn1	nt	nt	nt	-65	-30	3	8	nt
NC(=S)Nc1cccc(Cl)c1	i	-16	6	10	-17	2	5	9
CCOCCN1CCN(c2c(C)c(C)nc3cc(-c4cc(OC)cc(OC)c4)nn23)CC1	i	-14	-20	nt	-4	9	-7	-10
Cc1cccc(N(Cc2cc3ccc(C)cc3[nH]c2=O)S(=O)(=O)c2ccccc2)c1	i	29	-14	0	-22	1	-4	-22
Clc1cccc(-c2nc(-c3ccc(-c4nn[nH]n4)cc3)no2)c1	nt	16	nt	-43	-12	-1	2	nt
O=C1c2cccc3cccc(c23)C(=O)N1Nc1ccccc1	i	9	-11	23	-15	-6	-2	-3
O=C(NCCc1c[nH]c2ccccc12)OCCSS(=O)(=O)O	+	-5	-3	11	1	-2	2	-2
O=C1Nc2cc(C(=O)NCC3CCCO3)ccc2S/C1=C/c1ccccc1F (centres undefined)	i	17	-6	3	-5	-1	-9	-3
COc1ccc(/C=C2/N=C3CCCCCN3C2=O)cc1	i	-7	-4	1	nt	-3	-3	-5
O=C1CC(NC23CC4CC(CC(C4)C2)C3)C(=O)N1c1ccc2c(c1)OCO2 (centres undefined)	i	-1	10	-59	-9	4	5	7
CC1=C(C(=O)OC(C)C)[C@@H](c2ccc(C)o2)NC(=O)N1	i	-13	-5	-9	nt	-3	-1	5

(cont.)
SMILES	Rce1 inh	CSC inhib	PABP FP inh	Env fusion inh	Yeast UUG start	MT1-MMP act inh	MT1-MMP act inh RFP	eIF4H FP inh
CCCCNc1nc(CC)c2c(c1C#N)CCCC2	i	6	0	nt	-8	4	3	13
N=c1ccccn1CC(O)COc1ccccc1 (centres undefined)	i	-7	?	nt	-23	-2	3	?
C[C@H](CO)N1C[C@H](C)[C@@H](CN(C)S(C)(=O)=O)Oc2c(NC(=O)C3CC3)cccc2C1=O	nt	nt	nt	-6[16.7 µM]	-14&-3	4	2	nt
CC1CC(=O)N(c2ccc(NCc3ccccc3Cl)c([N+](=O)[O-])c2)C1=O (centres undefined)	i	12	-6	6	-6	5	0	-4
O=C(Nc1ccc(F)cc1)C1CCN(C(=O)c2ccc([N+](=O)[O-])cc2)CC1	i	16	18	6	nt	1	-1	-2
O=C(c1cnn2c(C(F)F)cc(-c3ccccc3)nc12)N1CCc2ccccc21	nt	18	14	16	-47	-8	-6	-6
COc1ccc(NS(=O)(=O)c2ccc3c(c2)NC(=O)C(C)S3)cc1 (centres undefined)	i	-16	-10	1	-6	0	-7	-14
CCC(C)(NC(=O)c1ccc(=O)[nH]c1)C(=O)NC1CCCC1 (centres undefined)	i	9	-19	-5	-11	-1	3	0
CC1Cc2ccccc2N1C(=O)CSc1nc2cc3c(cc2cc1C#N)OCO3 (centres undefined)	nt	3	28	-9	-16	-31	-1	6
OCC[C@H]1C[C@@H](O)[C@H](O)[C@@]2(Cc3ccccc3O2)O1	nt	5	nt	-147	-5	0	1	nt
CCN(CC)S(=O)(=O)c1ccc(C(=O)NCc2cccs2)cc1	i	-17	6	-15	-2	2	-3	8
Nc1ncnc2c1ncn2[C@@H]1O[C@H](CNCc2ccc(OCC(=O)Nc3ccccn3)cc2)[C@@H](O)[C@H]1O	nt	nt	nt	-13	-11	2	11	nt
CC(OC(=O)/C(C#N)=C/c1ccco1)C(=O)N(C)c1ccccc1 (centres undefined)	nt	1	nt	nt	-10	-5	3	nt
COc1ccc(C2=Nc3ccccc3NC(=O)C2N(C(=O)c2ccnc3ccccc23)c2ccccc2)cc1 (centres undefined)	nt	nt	nt	-172	-28	3	-8	nt
COc1cc(C)ccc1OCCCOc1ccccc1Br	i	0	-3	nt	-18	-3	-2	1
Cc1ccc(CN2CC(N3CCN(CCO)CC3)CS2(=O)=O)cc1 (centres undefined)	nt	nt	nt	-35	-15	2	1	nt
Cc1ccc(C)n1-c1nn(S(=O)(=O)c2cccc(C(F)(F)F)c2)c2cccc(F)c12	i	20	19	4	-8	-3	-3	6
CCOC(=O)N1CCN(C(=O)CN(Cc2ccccc2)S(=O)(=O)c2ccc(OC)c(Cl)c2)CC1	i	nt	-6	-18	4	-1	-2	0

Given with bars between the fields: 3 of the compounds above
SMILES | Rce1 inh | CSC inhib | PABP FP inh | Env fusion inh | Yeast UUG start | MT1-MMP act inh | MT1-MMP act inh RFP | eIF4H FP inh
CCOC(=O)N1CCN(C(=O)CN(Cc2ccccc2)S(=O)(=O)c2ccc(OC)c(Cl)c2)CC1 | i | nt | -6 | -18 | 4 | -1 | -2 | 0
COc1ccc(C2=Nc3ccccc3NC(=O)C2N(C(=O)c2ccnc3ccccc23)c2ccccc2)cc1 (centres undefined) | nt | nt | nt | -172 | -28 | 3 | -8 | nt
COc1cc(C)ccc1OCCCOc1ccccc1Br | i | 0 | -3 | nt | -18 | -3 | -2 | 1
